Screening data (PubChem)
RE007 growth inh – qHTS Assay for Inhibitors of the HIV-1 protein Vpr. actives 0.21% (n = 360,000). S. pombe RE007 Vpr strain, BacTiter-Glo ATP luminescence, 24 h; control for the full effect not named in the record. Potency, µM (titrated, usually from 92.2 µM), without a hit: at the top dose activity change, negative = less growth; active = well fitted falling curve with a large enough effect; inconclusive = small, poorly fitted or top-dose-only effect; inactive = no such curve, though single readings can be large or run the other way;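 note: % is set by controls: 0 for no effect and ±100 for the full control effect; nearly all actives have a fitted effect of over 50% in size; the assay follows cell death caused by Vpr and the record does not say whether a fall means rescue or toxicity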
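Fission yeast strain RE007, carrying one chromosomally integrated HIV-1 vpr copy, was seeded at OD 0.01 in PMG+AL medium with 23 nL pinned compound. After 24 h at 30 °C and 99% humidity, viability was read by BacTiter-Glo luminescence.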
2A StopGo – High Throughput Screening for Foot and Mouth Disease Virus Antivirals | actives 1.2% (n = 410,000) | Potency, µM (titrated, usually from 57.9 µM), for inactives: at the top dose signal change, negative = less light | human cells with a luciferase reporter of 2A StopGo recoding; control for the full effect not named in the record; active = well fitted falling curve with a large enough effect; inconclusive = small, poorly fitted or top-dose-only effect; inactive = no such curve, though single readings can be large or run the other way; tested in HEK293T cells; note: % is set by controls: 0 for no effect and ±100 for the full control effect; nearly all actives have a fitted effect of over 45% in size; luciferase light after 4 h
NS1 inh – qHTS Assay for Inhibitors of Influenza NS1 Protein Function; S. cerevisiae slowed by influenza A NS1, growth recovery by OD600; Potency, µM (series often up to 46.1 µM), inactives show top-dose activity, positive = more growth; actives 0.4% (n = 270,000); AID 2326, 2010; note: actives are rising curves; nearly all actives have a fitted effect of over 50% in size
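In this qHTS, NS1 from influenza A is expressed in budding yeast, where it slows growth. Cells are switched from glucose to 2% galactose medium (pH 6.0, -URA), treated with compound, and growth recovery is read at OD600.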
MARV entry inh – qHTS for inhibitors of binding or entry into cells for Marburg Virus. Marburg virus pseudotyped entry inhibition, cell reporter; control for the full effect not named in the record; about a third of the inactives were read at about 46 µM. Potency, µM (series often up to 37.8 µM), for inactives: at the highest dose activity change, negative = inhibition, hits mostly inhibitors. actives 1.8% (n = 300,000). AID 540276, 2011; active = well fitted inhibition curve with a large enough effect; inconclusive = small, poorly fitted or top-dose-only effect, or effect the other way; inactive = flat fitted curve, though single readings scatter; tested in HEK293 cells; about a fifth of its hits are not listed in these tables; note: % is set by controls: 0 for no effect and ±100 for the full control effect; luciferase read-out
SARS PLP yeast – qHTS of Yeast-based Assay for SARS-CoV PLP. S. cerevisiae expressing SARS-CoV PLpro, growth rescue; control for the full effect not named in the record. Potency, µM (top dose mostly 32.9 µM), without a hit: at the top dose activity, positive = growth rescue. actives 0.19% (n = 330,000); note: 0% is about no effect; nearly all actives have a fitted effect of over 55% in size; growth read by luminescence after 48 h
Cruzain noTriton – qHTS Assay for Promiscuous and Specific Inhibitors of Cruzain (without detergent); purified cruzain, Z-FR-AMC fluorescence, no detergent; Potency, µM, for the others: max response, negative = inhibition, most hits filed as inhibitors; actives 2.3% (n = 200,000); active = well fitted curve in the direction sought with a large enough effect; inconclusive = small, poorly fitted or top-dose-only effect, or another doubt; inactive = no such curve, though single readings can be large; an effect the other way counts as inactive or inconclusive;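 note: plate controls were enzyme without inhibitor for no effect and buffer without enzyme for full effect; nearly all actives have a fitted effect of over 40% in size; top concentration of the series not given in the record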
Target sequence (P25779 123-467 limits assumed): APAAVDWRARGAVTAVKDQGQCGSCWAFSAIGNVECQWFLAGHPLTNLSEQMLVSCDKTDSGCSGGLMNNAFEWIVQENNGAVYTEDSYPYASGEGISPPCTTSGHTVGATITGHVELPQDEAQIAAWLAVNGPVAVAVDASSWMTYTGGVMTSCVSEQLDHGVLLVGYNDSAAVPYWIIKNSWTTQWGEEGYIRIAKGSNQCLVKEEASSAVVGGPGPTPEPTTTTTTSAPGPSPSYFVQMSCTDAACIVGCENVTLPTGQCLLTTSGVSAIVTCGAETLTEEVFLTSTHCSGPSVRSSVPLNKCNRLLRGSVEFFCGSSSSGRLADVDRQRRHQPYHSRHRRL
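Purified cruzain at 1.5 nM, pre-incubated 15 min with compound at room temperature in 100 mM sodium acetate pH 5.5, 5 mM DTT, 0.00005% Triton X-100. Reaction started with 2 uM Z-FR-AMC; AMC fluorescence increase over 60 s gives rate.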
Cruzain Triton – qHTS Assay for Promiscuous and Specific Inhibitors of Cruzain (with detergent) | Cruzipain (Trypanosoma cruzi), P25779 | purified cruzain, Z-FR-AMC fluorescence, 0.01% Triton | Potency, µM, for inactives: max response, negative = inhibition, actives largely listed as inhibitors | actives 0.43% (n = 200,000); active = well fitted curve in the direction sought with a large enough effect; inconclusive = small, poorly fitted or top-dose-only effect, or another doubt; inactive = no such curve, though single readings can be large; an effect the other way counts as inactive or inconclusive;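 note: plate controls were neutral wells for no effect and buffer without enzyme for full effect; nearly all actives have a fitted effect of over 40% in size; top concentration of the series not given in the record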
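Steps: dispense cruzain (1.5 nM final) in acetate buffer pH 5.5 with DTT and 0.01% Triton X-100; pin-transfer compounds; incubate 15 min RT; add Z-FR-AMC (2 uM final); read fluorescence every 30 s, using the 60 s intensity change.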
LASV entry inh – qHTS for Inhibitors of binding or entry into cells for Lassa Virus; AID 540256, 2011; Potency, µM (highest dose often 37.9 µM), without a hit: at the top dose activity change, negative = inhibition, actives largely listed as inhibitors; Lassa virus pseudotype entry inhibition, cell reporter; control for the full effect not named in the record; actives 1.2% (n = 300,000); active means well fitted inhibition curve with a large enough effect; inconclusive means small, poorly fitted or top-dose-only effect, or effect the other way; inactive means flat fitted curve, though single readings scatter; tested in HEK293 cells; note: % is set by controls: 0 for no effect and ±100 for the full control effect; nearly all actives have a fitted effect of over 50% in size; luciferase read-out
* marks the source's active call; other numbers are inactive results; ? = inconclusive; / = no result given; [ ] = another dose, or the depositor's remark. Unless noted, calls come from the whole dose curve; as a rule, active means well fitted rising curve with a large enough effect; inconclusive means small, poorly fitted or top-dose-only effect; inactive means no such curve, though single readings can be large or run the other way. Potency is the fitted concentration of half-maximal effect. Rows were taken by chance (roughly 4.5% active in at least one column).

SMILES	RE007 growth inh	2A StopGo	NS1 inh	MARV entry inh	SARS PLP yeast	Cruzain noTriton	Cruzain Triton	LASV entry inh
COc1cc(/C=N/N2CCOCC2)ccc1OCc1ccc(Cl)cc1	0%	21%	/	-12%[46.1 µM]	-11%	/	/	2%
Cc1cccc(OCCCC(=O)N2CCCc3ccccc32)c1C	1%	-10%	1%	-21%	-7%	2%	-9.5%	5%
CCCC(=O)N1N=C(c2ccccc2)CC1c1cn(C)c2ccccc12 (configuration not stated)	34%	-6%	-25%	?	-41%	-4%	-4.5%	24%
Cc1cc(OC(C)C(=O)Nc2cccc(-c3nc4ccccc4o3)c2)cc(C)c1Cl (configuration not stated)	/	-18%	/	1%[46.1 µM]	/	-25%	-2.8%	12%[46.1 µM]
CCN(CC)S(=O)(=O)c1ccc(C)c(NC(=S)N2CCN(Cc3ccc4c(c3)OCO4)CC2)c1	2%	20µM*	-38%	?	-2%	/	/	?
Cc1ccc(S(=O)(=O)N(C)CC(=O)NCCCc2ccccc2)cc1	0%	-16%	-26%	/	-3%	/	/	/
CCOc1cc(C(=O)Nc2ccc(C)cc2O)ccc1OCC(=O)N1CCOCC1	-9%	-9%	/	-6%	/	/	/	7%
COc1cccc(CNC(=O)C2CCN(S(=O)(=O)c3ccc4c(c3)NC(=O)C(C)S4)CC2)c1 (configuration not stated)	5%	-18%	2%	-15%[46.1 µM]	-5%	/	/	-24%[46.1 µM]
O=C(c1ccco1)N1CCN(C(=O)c2ccc(-c3cccc(C(F)(F)F)c3)o2)CC1	-7%	-16%	/	?	-7%	/	/	5µM*
COc1cccc(NC(=O)CCN2CCC(C(N)=O)CC2)c1	-1%	-5%	-4%	3%	-7%	-4%	3.2%	-1%
COc1cc(CO)ccc1OCc1ccc(Cl)nc1	0%	73%[activator]	-2%	?	0%	/	/	-16%
CCc1ccc(-c2nc3cc(NC(=O)c4ccc(C)c(C)c4)ccc3o2)cc1	/	0%	/	13%[46.1 µM]	/	2%	-2.1%	0%[46.1 µM]
O=C1CC(NC(=O)c2ccc(Cl)cc2)C(=O)N1 (configuration not stated)	10%	-17%	1%	/	1%	/	/	/
Cc1ccc(S(=O)(=O)c2[nH]c(-c3ccccc3)nc2SCC(=O)O)cc1	/	13%	/	-5%[46.1 µM]	/	-16%	-4.5%	-17%[46.1 µM]
CC(C)CNC(=O)C(=O)NCc1ccccc1	0%	-4%	5%	13%[46.1 µM]	2%	/	/	21%[46.1 µM]
CCOC(=O)C1(C(=O)OCC)CC1c1ccccc1 (configuration not stated)	5%	-15%	3%	23%[46.1 µM]	4%	6%	6.2%	12%
O=C(O)Cc1ccc(NC(=O)C2CC=CCC2C(=O)O)cc1 (configuration not stated)	/	/	5%	0%	-4%	-2%	3.2%	/
O=C(CSC1=NCCS1)NC(c1ccccc1)c1ccccc1	-1%	?	5%	?	10%	-11%	-8.8%	-6%
Cc1ccc(S(=O)(=O)c2c(Nc3cc(C)ccc3C)sc(C(=O)c3ccc4c(c3)OCO4)c2N)cc1	/	2%	/	/	/	-27%	9.2%	?
COc1ccc(NC(=O)N2CCc3ccccc3C2)cc1OC	1%	13%	-14%	/	-7%	/	/	/
CCCN1/C(=C(\C#N)C2=NS(=O)(=O)c3ccccc32)N(C)c2ccccc21	10%	5%	/	-10%[46.1 µM]	/	/	/	-12%[46.1 µM]
O=C(CSc1ccccc1)NC(=O)NCc1ccccc1	-12%	-3%	?	-4%	1%	/	/	/
O=C(N/N=C/c1ccc(O)c(O)c1)c1cc(-c2ccccc2)nc2ccccc12	2%	16%	11%	?	5%	/	/	?
CCc1nc2c3cnn(-c4cc(Cl)ccc4C)c3ncn2n1	17%	-1%	-9%	-4%	5%	-5%	6.1%	1%
Cc1ccccc1NC(=O)c1sc2nc(N3CCOCC3)c3c(c2c1N)CC(C)(C)OC3	/	0%	/	24%[46.1 µM]	/	8%	-1.4%	-4%[46.1 µM]
Next part:
SMILES	RE007 growth inh	2A StopGo	NS1 inh	MARV entry inh	SARS PLP yeast	Cruzain noTriton	Cruzain Triton	LASV entry inh
O=c1c2ccccc2nnn1CCO	-2%	0%	-4%	/	-1%	/	/	/
CC1CCCN(S(=O)(=O)c2ccc(CN3C(=O)c4cccnc4C3=O)cc2)C1 (configuration not stated)	4%	-4%	-1%	-18%[46.1 µM]	-6%	/	/	-1%[46.1 µM]
COc1ccccc1NC(=S)Nc1ccc2cn[nH]c2c1	2%	16%	/	6%[46.1 µM]	1%	/	/	3%
COc1cc(/C=c2\s/c(=C(/C#N)C(=O)N3CCCC3)n(-c3ccccc3)c2=O)ccc1O	-20%	-30%	4%	-16%	-9%	-1%	-3.9%	-9%
CCOc1ccc(NC(=O)c2cc3c(C)nc4ccccc4c3o2)cc1	10%	-5%	1%	/	-7%	?	1.1%	/
Cn1c(SCC(=O)Nc2nccs2)nnc1C1CC1	-11%	13%	7%	5%[46.1 µM]	4%	/	/	11%[46.1 µM]
O=C1NC(c2ccccc2OC(F)F)Oc2ccccc21 (configuration not stated)	6%	-19%	/	16%[46.1 µM]	-2%	/	/	-10%
Cc1ccc(OCCCn2ccnc2)cc1C	-22%	-23%	-8%	8%	-7%	7%	0.3%	6%
O=C(CCc1ccccc1)Nc1ccnn1C1CCN(Cc2ccc(OCCO)cc2)CC1	-2%	4%	-5%	/	-3%	/	/	/
CC1(C)CC(NC(=O)c2cc(S(=O)(=O)N3CCCCC3)ccc2Cl)CC(C)(C)N1	-18%	-10%	-2%	7%	-3%	/	/	15%
O=C(Cc1ccccc1)NCc1ccc(-n2cccc2)cc1	-10%	-24%	5%	?	0%	/	/	?
Cc1ccc(CNC(=O)C2CCCCN2S(=O)(=O)c2ccccc2)cc1 (configuration not stated)	3%	-4%	-17%	?	-4%	/	/	?
Cc1ccccc1C(=O)NNC(=O)c1ccc(F)cc1	4%	53%[activator]	9%	17%	5%	-1%	-1.5%	2%
COC(=O)c1cc(NS(=O)(=O)c2ccc(F)cc2)ccc1N1CCOCC1	11%	2%	-1%	/	1%	/	/	/
C=CCNC(=O)COc1coc(CN2CCN(C(=O)c3ccco3)CC2)cc1=O	-6%	-5%	/	-3%	-1%	/	/	-3%
COc1ccc(-c2nc(C)c(CCNC(=O)C(=O)Nc3cc(C)cc(C)c3)s2)cc1OC	/	-22%	/	/	/	1%	-2.4%	-8%[46.1 µM]
Cc1ccc(NNC(=O)c2ccc(Cl)cc2)nn1	0%	-6%	-2%	/	0%	/	/	/
Cc1ccc(-n2cc(CN3CCC(CO)(Cc4cccc(C(F)(F)F)c4)CC3)cn2)cc1	-1%	?	-10%	?	1%	/	/	?
O=C(CCC(=O)NNC(=O)c1ccccc1[N+](=O)[O-])NCc1ccccc1	-11%	-10%	6%	20%[46.1 µM]	0%	/	/	-6%
CCOc1ccccc1CNC(=O)C1CCCN(c2ncnc3c2nc2n3CCCCC2)C1 (configuration not stated)	-25%	-1%	-23%	?	-3%	/	/	?
O=C(CSc1n[nH]c(=O)n1Cc1ccco1)c1ccc(F)cc1	17%	-2%	0%	/	0%	/	/	/
CCOC(=O)c1c(C)n(C)c2ccc(OCC(O)Cn3c(C)nc4ccccc43)cc12 (configuration not stated)	7%	18µM*	-29%	?	-2%	?	-0.9%	?
CCOc1ccc(N(CC(=O)NCCc2ccccc2)S(=O)(=O)c2ccccc2)cc1	4%	-13%	22%	4%[46.1 µM]	-2%	/	/	-7%
N#Cc1ccc(C(=O)N2CCN(c3nc4ccc(F)cc4s3)CC2)cc1	/	?	/	/	/	-18%	-6.3%	-8%[46.1 µM]
COc1ccc2nc(NC3=NCCN3)sc2c1	-20%	71%[activator]	-62%	-6%	-87%	-5%	-5.1%	-25%
Next section:
SMILES	RE007 growth inh	2A StopGo	NS1 inh	MARV entry inh	SARS PLP yeast	Cruzain noTriton	Cruzain Triton	LASV entry inh
CCCS(=O)(=O)N1CCN=C1SCc1ccc(F)cc1	1%	0%	-5%	/	1%	/	/	/
Cc1ccc(C(=O)OC(C)CN2CCN(C)CC2)cc1 (configuration not stated)	2%	26%	-4%	18%[46.1 µM]	0%	/	/	19%
CC(=O)NCCNc1nc2c(-c3ccccc3)nnn2c2ccccc12	1%	-8%	5%	/	-1%	/	/	/
O=C(Cn1c(NCCCO)nc2ccccc21)c1ccc(Cl)cc1	-7%	-4%	15%	/	2%	/	/	/
Cc1cc(C)cc(N=C2SC(CC(=O)Nc3ccccc3)C(=O)N2CCN2CCOCC2)c1 (configuration not stated)	3%	0%	/	-1%	-9%	/	/	?
CCS(=O)(=O)N1Cc2ccccc2CC1C(=O)NCCc1c[nH]c2ccccc12 (configuration not stated)	-9%	-13%	4%	3%[46.1 µM]	2%	/	/	?
Cc1ccc(S(=O)(=O)/C(C#N)=C/c2c(N3CCC(C(N)=O)CC3)nc3c(C)cccn3c2=O)cc1	5%	14%	4%	-19%	9%	?	-3.5%	-2%
COc1ccc(-c2cc(C(=O)Oc3ccc(C)cc3)c3cc(C)ccc3n2)cc1	/	11%	/	/	/	1%	1.9%	1%[46.1 µM]
COc1ccccc1NS(=O)(=O)c1cc2c3c(c1)CC(=O)N3CCC2	-3%	-13%	6%	-6%[46.1 µM]	-1%	/	/	-17%[46.1 µM]
Cc1ccc(S(=O)(=O)NCc2ccc(C(=O)NC3CC3)cc2)cc1	3%	-8%	7%	10%	-4%	0%	-0.5%	-5%
CCCCn1c(-c2cccc(F)c2)nc2c1c(=O)[nH]c(=O)n2CC(C)C	-13%	-22%	18%	1%[46.1 µM]	-1%	/	/	-1%[46.1 µM]
Cc1oc(-c2ccccc2)cc1C(=O)NC1CCN(Cc2ccccc2)CC1	-1%	?	0%	?	-1%	/	/	-6%
COc1ccc(NC(=O)C23CC4CC(CC(Cl)(C4)C2)C3)cc1S(=O)(=O)N1CCOCC1	-8%	17%	/	8%[46.1 µM]	-22%	/	/	?
O=C(Nc1nnc(-c2ccc(F)cc2)s1)Nc1ccccc1F	-11%	16%	9%	/	-2%	/	/	/
O=C(NCC(c1ccc2c(c1)OCO2)N1CCN(c2ccccc2)CC1)C(=O)Nc1ccc(F)cc1 (configuration not stated)	/	46%[activator]	/	/	/	-17%	0.2%	23%[46.1 µM]
